High-throughput results from PubChem.
Ecoli growth: E. coli growth inhibition, primary screen, OD600; Escherichia coli growth, 23 h; active compounds read low; OD600 absorbance (no concentration beside the values); hit rate 0.21% among 330,000; AID 1053175, 2014;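 active = OD600 absorbance below the run mean of sample wells minus 3.6 SD, in any replicate, cut at about 0.56 in these data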;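 note: stock transfer was 300 nL into about 60 µL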
UCH37 DUB inh: inhibitors of human UCH37 deubiquitinase, primary screen, biochemical, Ub-AMC cleavage, fluorescence. inhibition, % (test concentration not listed). Ubiquitin carboxyl-terminal hydrolase isozyme L5 (Homo sapiens), Q9Y5K5. purified proteasome/UCH37. hit rate 0.33% among 330,000. AID 588478, 2011;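 active = mean of two replicates above 20%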;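 note: 0% = compound-free wells with enzyme and 100% = wells lacking proteasome; stock transfer was 100 nL into about 20 µL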
Target sequence (Q9Y5K5 whole entry, looked up): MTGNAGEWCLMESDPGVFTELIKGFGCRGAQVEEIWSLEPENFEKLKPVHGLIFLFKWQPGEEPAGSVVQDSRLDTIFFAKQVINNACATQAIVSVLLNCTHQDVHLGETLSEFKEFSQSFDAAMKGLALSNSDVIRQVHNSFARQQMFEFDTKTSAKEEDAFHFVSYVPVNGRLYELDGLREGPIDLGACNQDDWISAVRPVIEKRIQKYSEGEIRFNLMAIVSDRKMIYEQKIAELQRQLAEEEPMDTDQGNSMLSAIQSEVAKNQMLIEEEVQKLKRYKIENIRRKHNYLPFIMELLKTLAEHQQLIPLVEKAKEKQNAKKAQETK
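Material: Human UCH37 enzyme supplied as purified proteasome complex | Schedule: 30 min compound-proteasome preincubation then 25 min substrate reaction, room temperature | Detection: AMC fluorescence from Ub-AMC cleavage, excitation 355 nm, emission 460 nm | Benchmarks: Wells without proteasome as full block, compound-free enzyme plus substrate as uninhibited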
An asterisk follows results filed as active. These rows are one share of the data; count on the stated rates, not on these rows.

canonical_smiles	UCH37 DUB inh	Ecoli growth
CC(=NNC(=O)c1ccc(NS(=O)(=O)c2cccs2)cc1)c1ccc2ccccc2c1	1.8	0.686
COc1cc(C(=O)Oc2cccc(C=NNC(=O)c3cccnc3)c2)cc(OC)c1OC	5.8	0.661
COc1ccc(NC(=O)CON=C(C)c2cccs2)cc1	4.3	0.676
O=C(NN=C1SCC(=O)N1CCc1ccccc1)c1cccs1	-0.4	0.689
COc1ccc(C=NNC(=O)c2cccc(Br)c2)cc1Cn1cc(Cl)cn1	2.9	0.714
O=C(NN=Cc1ccc(OC(F)F)cc1OC(F)F)c1cccc(S(=O)(=O)N2CCOCC2)c1	1.2	0.705
Oc1cccc(C=NN2CCN(c3ccccn3)CC2)c1	5.7	0.723
CC(=NNC(N)=S)C1=CCC2C3CC[C@H]4CC(O)CC[C@]4(C)C3CC[C@]12C (stereo not given in full)	2.6	0.723
CCCOc1ccc(C=NNC(=O)CN(c2ccc(OCC)cc2)S(C)(=O)=O)cc1	2.1	0.74
COc1cccc(C(=O)NN=C(c2ccccc2)c2ccccn2)c1	1.6	0.741
Cc1ccc(OCCOc2ccc(Br)cc2C=NNC(N)=O)cc1	2.2	0.724
COc1cc(C=NNc2nc(-c3ccc(S(=O)(=O)N(C)C)cc3)cs2)ccc1O	-8.1	0.702
O=[N+]([O-])c1cccc(C=NNc2cc(N3CCOCC3)ncn2)c1	6.3	0.661
CCc1ccccc1N/C(=N/S(=O)(=O)c1ccccc1)C(F)(F)F	4.7	0.677
CCn1c(SCC(=O)NN=C/C=C/c2ccccc2[N+](=O)[O-])nnc1-c1ccc(Cl)cc1	4.3	0.684
COc1ccc(C=NN2CCN(c3ccccc3OC)CC2)cc1OC	2.0	0.73
CCn1c(SCC(=O)NN=Cc2cccs2)nc2ccccc21	2.8	0.679
Cc1nn(C)c(C(=O)NN=Cc2cccnc2)c1Cl	1.1	0.652
Cc1ccc(-n2c(C)cc(C=NNC(=O)c3ccncc3)c2C)cc1	11.3	0.728
Cc1cc(C)nc(N=C(N)Nc2ccc(C)c([N+](=O)[O-])c2)n1	3.7	0.646
Cc1ccccc1N=Nc1c(C)[nH]n(-c2ccccc2)c1=O	8.5	0.709
O=C(CSc1nnc(SCc2ccccc2)s1)NN=Cc1c(Cl)cccc1Cl	-0.4	0.724
O=[N+]([O-])c1ccc(C=NNc2nc(N3CCCCC3)nc(N3CCCCC3)n2)cc1	2.0	0.679
COc1cc(C=NNC(=O)Cn2ccc(C(F)(F)F)n2)cc(OC)c1OC	4.5	0.694
O=C(COc1ccc(Cl)cc1Cl)NCC(=O)NN=Cc1c[nH]c2ccccc12	6.4	0.709
CC(=NNC(=O)C1CC1c1ccccc1)c1cccs1 (stereo not given)	2.7	0.677
Cc1ccc(S(=O)(=O)N=C(N)Nc2nc(C)c3cc(C)ccc3n2)cc1	-18.1	0.725
NC(=NOC(=O)CCCc1ccccc1)c1ccc([N+](=O)[O-])cc1	2.7	0.684
COc1ccc(C=NNC(=O)c2ccc(NC(C)=O)cc2)cc1COc1ccc(F)cc1F	-234.7	0.679
S=c1[nH]c(-c2ccccc2)cn1N=Cc1cccnc1	6.6	0.677
CCOc1cc(C=NNC(=O)CNc2cccc(C)c2)ccc1OC(=O)c1ccccc1	1.8	0.679
O=C(CCCO)NN=Cc1cc(Br)ccc1O	-59.1	0.628
CCS(=O)(=O)N=C(N)c1ccccc1	-0.1	0.69
O=C(CNS(=O)(=O)N1CCOCC1)NN=Cc1cccnc1	2.7	0.661
CC1C(=NO)C(CN(C)C)C2CC1C2(C)C (stereo not given)	5.5	0.795
COc1ccc(C=NNC(=O)c2ccc3c(c2)NC(=O)C(C)(C)O3)cc1OC	-151.2	0.699
CON=C(CNC(=O)c1ccc(F)cc1)c1ccc(Cl)cc1	-1.2	0.727
CCN(CC)C(=O)C(=O)NN=Cc1cccs1	-0.9	0.659
O=C(NN=Cc1cccc([N+](=O)[O-])c1)C1CC(=O)N(c2ccc(F)cc2)C1 (stereo not given)	1.3	0.673
NC(=NO)c1nc(N2CCCCC2)nc(N2CCCCC2)n1	2.6	0.73
Cc1cc(=O)[nH]c(NN=CCCc2ccccc2)n1	1.3	0.711
O=C(O)c1ccccc1C=NNc1nc(N2CCCCC2)nc(N2CCCCC2)n1	1.6	0.727
CCOc1cc(C=NNC(=O)OC(C)(C)C)ccc1OC(=O)c1ccco1	-0.9	0.708
O=S(=O)(NN=Cc1cccnc1)c1ccc(Cl)c(Cl)c1	2.3	0.693
COc1ccc(C=NNC(=O)COc2ccccc2Cl)cc1Cn1nc(C)cc1C	-0.1	0.773
Cc1csc(N=CN(C)C)c1C#N	9.4	0.679
CCCc1c(C(=O)NN=C(C)CCc2ccc(OC)cc2)nnn1-c1nonc1N	4.4	0.695
COc1cccc(C=NNC(=S)Nc2cccc(C(=O)O)c2)c1O	-5.8	0.616
Cn1c(NN=C2CCCc3ccccc32)nc2c1c(=O)n(Cc1ccc(F)cc1)c(=O)n2C	-9.0	0.697
Cn1cc(C(=O)NN=Cc2ccc(Br)c([N+](=O)[O-])c2)c2ccccc21	4.7	0.706

Following part:
canonical_smiles	UCH37 DUB inh	Ecoli growth
CC(Oc1ccccc1F)c1ccnc2nc(N=CN(C)C)nn12 (stereo not given)	-38.6	0.666
ON=C1CCCc2ccc(Cl)cc21	1.5	0.699
COc1cccc(N(CC(=O)NN=C(C)c2cccs2)S(C)(=O)=O)c1	2.2	0.671
Cc1cc(O)c2c(=NN)c(-c3csc(C)n3)coc2c1	1.1	0.672
CC(SCc1ccccc1)C(=O)NN=Cc1cccs1 (stereo not given)	3.6	0.681
COc1cc(C=NNC(=O)Cn2cnc3c2c(=O)n(C)c(=O)n3C)cc(OC)c1OC	0.3	0.685
CN(C)c1ccc(C=NNc2nc3ccccc3o2)cc1	-34.4	0.696
COc1ccc(NCC(=O)NN=C/C=C/c2ccccc2[N+](=O)[O-])cc1	5.7	0.661
Cc1ccc(-c2[nH]ncc2C=Nn2c(C)nc3ccccc3c2=O)cc1	0.0	0.684
Cc1c(Cc2ccccc2)sc(N=Cc2c(O)ccc3ccccc23)c1C(N)=O	8.1	0.691
CC(=O)NN=Cc1c(C)[nH]n(-c2ccccc2)c1=O	2.8	0.713
O=C(O)c1cc(-c2ccc(C=NNc3ccc(Cl)cc3)o2)ccc1Cl	-72.8	0.718
COCCNC(=O)Cn1cc(C=NNC(=O)c2ccc(Oc3ccc(O)cc3)cc2)c2ccccc21	-20.1	0.681
CC(=NNC(=O)c1nnn(-c2nonc2N)c1-c1ccccc1)c1ccc2c(c1)OCO2	-99.3	0.651
O=[N+]([O-])c1ccc(Cl)c(C=NN2CCN(Cc3ccccc3)CC2)c1	-0.7	0.704
CC(=NNC(=O)c1n[nH]c2c1CCC2)c1cccs1	-0.7	0.626
O=C(NN=Cc1cn(Cc2ccccc2)c2ccccc12)c1ccncc1	8.2	0.634
O=C(NN=Cc1ccc([N+](=O)[O-])cc1)C(=O)N1CCCC1	11.8	0.693
CC1=Nc2ccccc2C1=Cc1sc(Nc2ccc(C)cc2)nc1O	5.1	0.58
COc1ccc(C(=O)NCC(=O)NN=Cc2ccco2)cc1OC	1.8	0.66
C/C(C=NNC(=O)Cn1cnc2c1c(=O)n(C)c(=O)n2C)=C\c1ccccc1	3.4	0.676
Cl/C(C=NN1CCN(c2ccccn2)CC1)=C\c1ccccc1	1.0	0.744
Cc1cnn(-c2cc(NN=Cc3ccccc3Cl)ncn2)c1	4.3	0.745
CCOC(=O)C(C#N)=NNc1ccccc1C#N	11.7	0.726
O=C(O)CC1SC(=NN=C2CCCCC2)N(c2ccccc2)C1=O (stereo not given)	6.1	0.699
COc1ccc(C=NNC(=O)c2cccc([N+](=O)[O-])c2)c2ccccc12	7.7	0.705
COc1cc(C=NNC(=O)c2c(-c3ccccc3)noc2C)ccc1O	5.3	0.756
C=CCNC(=O)ON=Cc1csc([N+](=O)[O-])c1	4.2	0.624
COCc1cc(=O)[nH]c(N=C(N)Nc2c(F)cccc2F)n1	1.6	0.653
CC(=NNC(=S)NCc1ccccc1)c1ccc(C#N)cc1	2.2	0.716
CCOC(=O)C(=NNc1ccccc1Cl)N1CCN(c2ccccc2OC)CC1	3.4	0.689
CON=CC(=NNc1cc(OC)cc(OC)c1)C(=O)c1ccccc1	2.2	0.69
CCOC(=O)C(=NNc1ccc(Br)cc1)N1CC(C)OC(C)C1 (stereo not given)	7.3	0.676
COc1cccc(C=Nn2c(-c3n[nH]c4c3CCC4)n[nH]c2=S)c1O	6.7	0.683
CC1(C)CC(=NNC(=S)Nc2ccccc2F)c2cc(O)ccc2O1	-41.3	0.697
CC(=NNS(=O)(=O)c1ccccc1)c1c[nH]c2ccccc12	2.6	0.592
O=C(NN=Cc1cccs1)c1n[nH]c2c1CCCC2	5.1	0.678
O=C(NN=C/C=C/c1ccc2c(c1)OCO2)c1ccc(F)cc1	-5.7	0.733
COc1ccccc1N1CCN(C(=O)C(=O)NN=Cc2ccccc2F)CC1	0.9	0.707
CCOC(=O)NN=Cc1cc(OC)c(O)c(OC)c1	-4.5	0.674
Cc1nn(C)cc1C=NNC(=O)c1csc2c1CCCC2	0.4	0.698
C(=Nc1nc2ccccc2n1CCN1CCCCC1)c1cccs1	-1.4	0.647
COc1ccc(C=NN2CCN(c3ccccc3OC)CC2)cc1Br	5.7	0.684
CCOc1ccc(C=NNC(=O)c2ccc(CSc3nc4ccccc4[nH]3)cc2)cc1	-1.3	0.732
CCOc1cc(C(=O)NN=Cc2ccsc2)cc(OCC)c1OCC	-1.8	0.715
O=C(CON=Cc1ccc(OC(F)F)cc1)N1CCc2ccccc21	6.0	0.727
CC1=C(C)C(=NOS(=O)(=O)c2ccc(C)cc2)C=CC1=O	4.6	0.655
O=C1Nc2ccccc2C1=NN=Cc1cccc(O)c1	6.8	0.669
CCOC(=O)C=c1sc(=Cc2c(OC)ccc3ccccc23)c(=O)n1CC(=O)NCC1CCCO1 (stereo not given)	-2.9	0.756
CCCc1nc2ccccc2c(=O)n1N=Cc1ccc(O)cc1	3.3	0.703

More results:
canonical_smiles	UCH37 DUB inh	Ecoli growth
CCc1ccc(C(=O)NN=C(C)c2cccnc2)s1	5.2	0.617
COc1ccc(C=NNC(=O)c2cccc([N+](=O)[O-])c2)cc1OS(=O)(=O)c1ccccc1	3.1	0.683
CCOC(=O)C(CC)C(C)=NNC(=O)c1cccc(C)c1 (stereo not given)	-0.2	0.707
Cc1cc(C=NNC(=O)c2cccs2)c(C)n1-c1ccc2ncccc2c1	1.6	0.737
CCOC(=O)Cc1csc(NN=Cc2ccc(C(F)(F)F)cc2)n1	0.3	0.701
CC1CCCC(C)N1N=Cc1ccc(O)c(O)c1 (stereo not given)	1.1	0.694
CC(CC(=O)NCc1ccccc1Cl)=NNC(=O)c1ccccn1	0.9	0.706
O=C(CSc1ccc2ccccc2n1)NN=Cc1ccc(O)cc1	5.7	0.704
COc1ccc(C=NNC(=O)CC(=O)NCc2cccnc2)cc1[N+](=O)[O-]	4.8	0.733
COc1ccc(NC(=O)C(=O)NN=Cc2cccnc2)cc1	-1.3	0.63
Cc1c(C=NNC(=O)c2ccc3c(c2)OCO3)cnn1C	3.2	0.715
Cc1cc(=O)[nH]c(NN=Cc2ccc3c(c2)OCCO3)n1	0.9	0.713

Of the compounds above, these contain two or more sulfur atoms.
canonical_smiles	UCH37 DUB inh	Ecoli growth
CC(=NNC(=O)c1ccc(NS(=O)(=O)c2cccs2)cc1)c1ccc2ccccc2c1	1.8	0.686
O=C(NN=C1SCC(=O)N1CCc1ccccc1)c1cccs1	-0.4	0.689
COc1cc(C=NNc2nc(-c3ccc(S(=O)(=O)N(C)C)cc3)cs2)ccc1O	-8.1	0.702
CCn1c(SCC(=O)NN=Cc2cccs2)nc2ccccc21	2.8	0.679
O=C(CSc1nnc(SCc2ccccc2)s1)NN=Cc1c(Cl)cccc1Cl	-0.4	0.724
COc1cccc(N(CC(=O)NN=C(C)c2cccs2)S(C)(=O)=O)c1	2.2	0.671
CC(SCc1ccccc1)C(=O)NN=Cc1cccs1 (stereo not given)	3.6	0.681

Individual results from the entries so far:
COCCNC(=O)Cn1cc(C=NNC(=O)c2ccc(Oc3ccc(O)cc3)cc2)c2ccccc21 @ UCH37 DUB inh: -20.1
Cc1cc(O)c2c(=NN)c(-c3csc(C)n3)coc2c1 @ UCH37 DUB inh: 1.1
